Source: PubChem
VDR inh = vitamin D3 receptor (human) inhibition; P11473; VDR-SRC2-3 peptide fluorescence polarization, 2 h; Potency, µM, for the others: max response, negative = inhibition, actives largely listed as inhibitors; actives 0.93% (n = 400,000); AID 504847; active means well fitted inhibition curve with a large enough effect; inconclusive means small, poorly fitted or top-dose-only effect, or another doubt; inactive means no such curve, though single readings can be large or run the other way; further: series mostly up to about 120 µM
Target sequence (P11473 whole entry, looked up): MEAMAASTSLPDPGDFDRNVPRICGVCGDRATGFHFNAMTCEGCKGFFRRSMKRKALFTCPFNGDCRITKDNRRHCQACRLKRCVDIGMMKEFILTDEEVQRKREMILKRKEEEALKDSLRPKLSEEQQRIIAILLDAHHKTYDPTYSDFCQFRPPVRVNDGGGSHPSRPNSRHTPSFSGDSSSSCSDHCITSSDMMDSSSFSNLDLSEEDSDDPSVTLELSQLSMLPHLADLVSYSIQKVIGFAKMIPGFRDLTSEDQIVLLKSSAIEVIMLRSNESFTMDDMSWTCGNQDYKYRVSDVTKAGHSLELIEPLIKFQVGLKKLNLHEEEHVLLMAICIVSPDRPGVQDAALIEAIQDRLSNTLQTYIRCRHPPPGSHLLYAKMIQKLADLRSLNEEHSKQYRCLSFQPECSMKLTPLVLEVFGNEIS
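Fluorescence polarization assay measuring small-molecule disruption of VDR binding to the coregulator peptide SRC2-3. Compounds were pin-transferred (23 nl) into the reagent mix and incubated 2 h at room temperature before reading.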
An asterisk follows results filed as active; ? = inconclusive; & = joins results of further samples; [ ] = another dose, or the depositor's remark. On the % scale 0 is the no-effect control and ±100 the full control effect; potency means the concentration at half of the fitted maximal effect. Not all compounds are listed; rates above refer to the full screens.

The first 5 entries as a preview:
SMILES	VDR inh
CC1(C(=O)Nc2nc3ccc(S(C)(=O)=O)cc3s2)CC1(Cl)Cl (centres undefined)	-17%
CCn1c(CNc2ccc(C(=O)O)cc2)nc2ccccc21	-8%
C[N+](C)(C)CCCCCNCC12CC3CC(CC(C3)C1)C2	-5%
Cc1ccccc1C(=O)Oc1ccccc1N1C(=O)C2CC=CCC2C1=O (centres undefined)	-9%
O=S(=O)(c1ccc(NC(=S)NN=Cc2ccccc2O)cc1)N1CCCCC1	-15%

This part in full, repeating the preview:
SMILES	VDR inh
CC1(C(=O)Nc2nc3ccc(S(C)(=O)=O)cc3s2)CC1(Cl)Cl (centres undefined)	-17%
CCn1c(CNc2ccc(C(=O)O)cc2)nc2ccccc21	-8%
C[N+](C)(C)CCCCCNCC12CC3CC(CC(C3)C1)C2	-5%
Cc1ccccc1C(=O)Oc1ccccc1N1C(=O)C2CC=CCC2C1=O (centres undefined)	-9%
O=S(=O)(c1ccc(NC(=S)NN=Cc2ccccc2O)cc1)N1CCCCC1	-15%
CC(C)c1ncc(C(O)c2ccccc2)n1C (centres undefined)	1%
O=C(CN1C(=O)C2C3C=CC(C4CC34)C2C1=O)OCC(=O)c1ccccc1 (centres undefined)	-21%
COc1cc(NC(=O)CCS(=O)(=O)c2nc(-c3cccs3)cc(C(F)(F)F)n2)cc(OC)c1OC	?
CCCCc1nn2c(=O)cc(COC(=O)C(C)Oc3ccccc3)nc2s1 (centres undefined)	5%
O=C(Cn1cccc1)N1CCN(c2ccc(F)cc2)CC1	-3%
CN(C(=O)COC(=O)c1ccc(Cl)s1)C1(C#N)CCCCC1	4%
O=C(c1ccc2c(c1)OCO2)N(c1ccc(Cl)cc1)C1C=CS(=O)(=O)C1 (centres undefined)	5%
CCc1ccc(OCC(=O)N(C)C)c(Br)c1	2%
CC(C)NC(=O)NC(=O)COC(=O)c1ccccc1O	7%
COc1ccc(CCNC(=O)CCNS(=O)(=O)c2cc(Br)cnc2N)cc1OC	-11%
COc1cccc(NC(=O)Cn2c(=O)n(CCc3ccc(OC)c(OC)c3)c(=O)c3ccccc32)c1	-26%
CN(CC(=O)Nc1cccc(F)c1)C(=O)c1ccc(N2CCCCCC2)c([N+](=O)[O-])c1	3%
Cc1ccc2oc(=O)cc(CN3CCCCC3)c2c1	-5%
Cc1ccccc1Cn1nc(C)c(NC(=O)c2ccccc2)c1C	9%
O=C(Nc1cccn(Cc2c(Cl)cccc2Cl)c1=O)c1ccccc1Cl	3%
COc1ccc(-c2nsc3c(N4CCCCC4)ncnc23)cc1	-8%
CCOc1cccc(N2C(=O)CC(N3CCN(c4nc5ccccc5s4)CC3)C2=O)c1 (centres undefined)	-5%
CCOc1ccc(CNC(=O)C2=Cc3cc(Br)ccc3OC2)cc1OC	-4%
O=C(NN=Cc1cccc2ccccc12)C1CC1	12%
Cc1sc(-c2cc3c([nH]c2=O)CC(c2ccccc2)CC3=O)nc1-c1ccc(Cl)cc1 (centres undefined)	-14%
CCOC(=O)N1CCN(c2c(N3CCN(c4ccccc4F)CC3)c(=O)c2=O)CC1	-3%
C=CCn1c(SCCCC)nc(O)cc1=O	-18%&14%
Nc1nnc(Sc2ccc(Cl)cc2[N+](=O)[O-])s1	-7%
CCOc1ccccc1N(CC(=O)N/N=C(\C)c1cccc(Br)c1)S(C)(=O)=O	6%
COC(=O)C1=C(Nc2ccc(OC)cc2)C=C(C)C(C(=O)OC)C1c1ccc(C)cc1 (centres undefined)	-4%
Cc1ccsc1-c1cc(C(=O)O)c2c(ccc3ccccc32)n1	-16%
COc1ccc(S(=O)(=O)N2CCCCC2)cc1NC(=O)CSc1ncnc2ccccc12	-20%
COc1ccccc1C(=O)NCCNc1ccc([N+](=O)[O-])cc1Cl	-5%
CCOc1cc(NC(=S)NCCCN2CCOCC2)c(OCC)cc1NC(=O)c1ccco1	-4%
C=C(C)C(=O)Nc1cccc(C2=NOC3(C2)C[C@H](C(N)=O)N(C(=O)/C=C/C)C3)c1 (some centres undefined)	5%
CN(CCc1ccccn1)C(=O)CCC1CCCN(C(=O)c2ccsc2)C1 (centres undefined)	-12%
Cc1cc(S(=O)(=O)N2CCCC(C(=O)Nc3ccc(C(=O)O)cc3)C2)ccc1Cl (centres undefined)	-10%
O=C1N/C(=N\N=C\c2cccs2)SC1Cc1cccc(Cl)c1 (centres undefined)	15%
O=C(CNC(=O)c1ccc(Cl)cc1)OCc1cc(=O)n2nc(C3CCCCC3)sc2n1	7%
CCCCN(C(=O)C(C)N1C(=O)c2ccccc2C1=O)c1c(N)n(CCCC)c(=O)[nH]c1=O (centres undefined)	3%
O=C(COC(=O)CCNS(=O)(=O)c1cccc(C(F)(F)F)c1)NC(=O)NC1CCCCC1	1%
O=C(Nc1ccc(F)c(F)c1)C1CCN(S(=O)(=O)c2cccs2)CC1	-6%
CC1CCCN(C(=O)CSc2n[nH]c(-c3cccs3)n2)C1 (centres undefined)	-7%
COc1cccc(N2CCN(C(=O)C3Cc4ccccc4N3C(C)=O)CC2)c1 (centres undefined)	5%
O=C(NC1CC(=O)N(c2ccccc2)C1)c1ccc(S(=O)(=O)N2CCCCC2)cc1 (centres undefined)	-14%
O=[N+]([O-])c1cnn(-c2nc(-c3ccco3)cc(C(F)(F)F)n2)c1	13%
O=C(Nc1cccc(S(=O)(=O)N2CCCCC2)c1)c1c2c(nc3ccccc13)CCN(Cc1ccccc1)C2	5%
Cc1nc2cc(C(=O)N3CCc4ccccc43)ccc2n1-c1ccc(F)c(F)c1	-4%
COC(=O)c1cn[nH]c1N	-10%
CCn1c(COc2ccc(Cl)cc2)nnc1SCC(=O)Nc1ccc2c(c1)OCO2	2%
O=C(CN1CCCN(Cc2ccccc2Cl)S1(=O)=O)NCc1ccccc1	2%
COc1ccc(/C=C/C(=O)OCC(=O)c2ccc(S(=O)(=O)N3CCCCC3)cc2)cc1OC	11%
CC1(C)C(=O)N(c2ccccc2Cl)C(=O)c2ccccc21	9%
COc1ccc2oc(C(=O)N3CCN(C(c4ccccc4)c4ccccc4)CC3)c(C)c2c1	5%
O=C1CN(C(=O)COC(=O)c2cccc(OCc3ccccc3)c2)c2ccccc2N1	-5%
COc1ccc(NC(=O)CN(C)C2=NS(=O)(=O)c3ccccc32)cc1Cl	6%
COC(=O)c1ccc(NC(=O)c2cccc(OC)c2)cc1	-10%
O=C(NNS(=O)(=O)c1ccc(F)cc1)c1ccc([N+](=O)[O-])cc1	-2%
CCOC(=O)c1ccccc1NC(=O)CN(c1cccc(OC)c1)S(C)(=O)=O	3%
COc1ccc2c(c1)C(c1ccc3c(c1)OCO3)CC(=O)O2 (centres undefined)	-3%

Reformatted bar-delimited: entries from further up.
Molecule | VDR inh
CCn1c(COc2ccc(Cl)cc2)nnc1SCC(=O)Nc1ccc2c(c1)OCO2 | 2%
O=C(CN1CCCN(Cc2ccccc2Cl)S1(=O)=O)NCc1ccccc1 | 2%
COc1ccc(/C=C/C(=O)OCC(=O)c2ccc(S(=O)(=O)N3CCCCC3)cc2)cc1OC | 11%
CC1(C)C(=O)N(c2ccccc2Cl)C(=O)c2ccccc21 | 9%
COc1ccc2oc(C(=O)N3CCN(C(c4ccccc4)c4ccccc4)CC3)c(C)c2c1 | 5%
O=C1CN(C(=O)COC(=O)c2cccc(OCc3ccccc3)c2)c2ccccc2N1 | -5%
COc1ccc(NC(=O)CN(C)C2=NS(=O)(=O)c3ccccc32)cc1Cl | 6%

The list goes on.
SMILES	VDR inh
COc1ccc(OCC(=O)N2CCN(C(=O)c3ccccc3)CC2)cc1	7%
COc1cc(OC)cc(N2C(=O)CSC23C(=O)Nc2ccccc23)c1 (centres undefined)	20%
COc1ccc(Br)cc1S(=O)(=O)Nc1ncccc1C	0%
O=C(NCCCN1CCCC1=O)c1ccc(S(=O)(=O)Nc2ccccc2)cc1	-15%
NC(=O)C1CCN(C(=O)Cc2ccsc2)CC1	18%
Cc1ccc(Cl)cc1N1CCN(C(=O)CCCCCn2c(=O)[nH]c3ccccc3c2=O)CC1	4%
COCCCNC(=O)CN(c1ccc(F)cc1)S(=O)(=O)c1ccc2c(c1)OCCO2	21%
C=CCN(CC=C)S(=O)(=O)c1ccc(C(=O)Nc2sc3c(c2C(N)=O)CCCCC3)cc1	-21%
C[C@H]1C[C@]2(O[C@@H]2C)C(=O)O[C@@H]2CCN(C)C/C=C(/COC(=O)[C@]1(C)O)C2=O	11%
CNC(=O)C1=NCCCc2cc(OC)c(OC)cc21	?
O=C(N/N=C/c1cc(Br)c(O)c(Br)c1)c1cccnc1	-12%
O=C(NCC1CCCO1)c1nn2c(c1Cl)NC(c1ccc(F)cc1)CC2C(F)(F)F (centres undefined)	-15%
CNC(=O)c1ccccc1F	33%[activator]
COc1ccccc1CNC(=O)CN1C(=O)NC(C)(c2ccc(C(C)(C)C)cc2)C1=O (centres undefined)	0%
CC(C)Oc1ccc2ccccc2c1C=O	-12%
Cc1cc2nc(-c3ccc(SCC(=O)Nc4ccc(S(=O)(=O)NC5CC5)cc4)nc3)[nH]c2cc1C	-14%
CN1CCN(c2ccc(S(=O)(=O)N3CCCCC3)cc2[N+](=O)[O-])CC1	-11%
Cc1cccc(Cn2cc(S(=O)(=O)c3ccc(Cl)cc3)c(=O)c3cc4c(cc32)OCO4)c1	2%
COc1cc(C(=O)Nc2ccc(N(C)C)cc2)c([N+](=O)[O-])cc1OC	-11%
O=C(N/N=C/c1ccc2c(c1)OCO2)c1ccccn1	-7%
O=c1c2c([N+](=O)[O-])cc([N+](=O)[O-])cc2sn1-c1ccc(Br)cc1	25µM*
S=c1[nH]nc(Cn2c(-c3ccccn3)nc3ccccc32)n1-c1ccc2c(c1)OCCO2	10%
CN1C(=S)SC(/[N+]([O-])=C/c2cccnc2)C1(C)C (centres undefined)	4%
Cc1cc(C)c2ccc(N)nc2c1O	-12%
COC(=O)c1ccc(NC(=O)CN2CCN(c3ccc(Cl)cc3)CC2)cc1	-27%&20%
CCN(CC)S(=O)(=O)c1cccc(C(=O)Nc2ccc3c(c2)OCO3)c1	-3%
CC(C)(CSc1ccccn1)NS(=O)(=O)c1ccccc1	-8%
CCC1CCCCN1C(=O)c1ccc(OC2CCN(Cc3ccccn3)CC2)cc1 (centres undefined)	-11%
COc1cc(C2c3c(oc4ccccc4c3=O)C(=O)N2Cc2ccc(C)cc2)ccc1O (centres undefined)	-1%
COCCn1c(COC)nc2ccccc21	9%
Cc1ccc(NC(=O)CC2(CC(=O)O)CCCC2)cc1	-22%
O=[N+]([O-])c1ccc(S(=O)(=O)Nc2nc3ccccc3nc2Nc2ccccc2)cc1	16%
COc1ccc(C(=O)Nc2ccc3cn[nH]c3c2)c(OC)c1	11%
CCOC(=O)c1c(NC(=O)C2CC(Cl)=CCC2C(=O)O)sc2c1CC(C)(C)OC2 (centres undefined)	3%
O=C(O)c1[nH]c2ccccc2c1C(c1cc(Cl)cc([N+](=O)[O-])c1O)c1c(C(=O)O)[nH]c2ccccc12	79µM*
CCCN1CCC(CCOc2ccccc2)(C(=O)OCC)CC1	-16%

Reprinted at random: 5 records from the list.
SMILES	VDR inh
COc1ccc(OCC(=O)N2CCN(C(=O)c3ccccc3)CC2)cc1	7%
O=[N+]([O-])c1ccc(S(=O)(=O)Nc2nc3ccccc3nc2Nc2ccccc2)cc1	16%
O=C(COC(=O)CCNS(=O)(=O)c1cccc(C(F)(F)F)c1)NC(=O)NC1CCCCC1	1%
COC(=O)c1cn[nH]c1N	-10%
CC(C)Oc1ccc2ccccc2c1C=O	-12%

Continuation.
SMILES	VDR inh
CC(NCc1ccc(S(N)(=O)=O)cc1)C(=O)N1CCc2ccccc21 (centres undefined)	-2%
O=C(c1ccccc1-c1ncc[nH]1)N1CCc2c([nH]c3ccccc23)C1c1ccccn1 (centres undefined)	-9%
COc1ccc(CCNC(=O)COc2ccc(S(=O)(=O)NCC(C)C)cc2Cl)cc1OC	-14%
Cc1ccc(NS(=O)(=O)c2cccc(C(=O)Nc3cc(C)on3)c2)cc1	-9%
COC(=O)c1ccccc1NC(=O)C(C)n1nc(C)c2c(C)n(-c3ccccc3)nc2c1=O (centres undefined)	5%
Cc1ccc2oc(=O)n(CC(=O)N3CCOCC3)c2c1	0%
O=C(O)C(Cc1c[nH]c2ccccc12)N1C(=O)c2ccccc2C1=O (centres undefined)	7%
Cc1cc(C)n2nnnc2n1	-7%
Cc1ccc(-n2nc3ccc(NC(=O)/C=C/c4ccco4)cc3n2)cc1	-22%
O=C(CCc1ccccc1)c1nnc(-c2ccccc2)o1	4%
Cc1cc2oc(=O)cc(-c3ccccc3)c2c(C)c1-c1ccc(C(F)(F)F)cc1	3%&-17%
O=C(N/N=C/c1ccc(O)cc1)Nc1cccc2nsnc12	9%
Cc1ccc2nc3n(c(=O)c2c1)CCCCC3	3%
CSc1ccccc1NC(=O)COc1nsnc1N1CCOCC1	-10%
NC(=S)N=Nc1c(O)n(Cc2ccc(F)cc2)c2ccccc12	14%
O=C(Nc1cccnc1)c1cccnc1Cl	-8%
CCCCn1nnnc1SCC(=O)c1cc(Cl)ccc1OC	-19%
CCS(=O)(=O)n1nc(-c2ccccc2)nc1NCc1ccco1	-7%
CCOc1ncccc1C(=O)Nc1cc(S(=O)(=O)N(CC)CC)ccc1N1CCOCC1	79µM*
Cc1ccccc1NC(C)C(=O)N/N=C/c1ccccc1OCc1cccc(Br)c1 (centres undefined)	11%
COc1ccc(C(C(=O)NC(C)(C)C)N(C(=O)CCC(=O)Nc2cc(C)on2)c2ccccc2F)cc1 (centres undefined)	-18%
CCC(c1nnnn1CCc1ccccc1)N1CCN(c2ccc(OC)cc2)CC1 (centres undefined)	-8%
CCOc1ccc(CCNC(=O)CS(=O)(=O)Cc2nc(-c3ccc(OC)cc3)oc2C)cc1	4%&-25%
Cc1cc(C(F)F)n2nc(C(=O)Nc3ccc(S(=O)(=O)N4CCCCCC4)cc3)nc2n1	12%
COC(=O)[C@]1(Cc2ccccc2)N[C@H](CN(C)C(=O)Nc2ccc(F)cc2)[C@@H]2C(=O)N(C)C(=O)[C@@H]21	-26%
